Sa growth 42C = S. aureus growth inhibition | 170,000 tested, 0.53% active | relative growth, % (test concentration not listed) | AID 720641 | S. aureus RN4220 growth, OD600, 20 h, 42 °C; active compounds read low;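 active means growth at 42 °C up to 50% and 20 or more points under that at 30 °C, or under 10% at both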;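 further: 300 nL library stock went into each well; scaled to the means of positive and negative controls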
GIV-Gai inh = inhibitors of GIV GBA-motif binding to rat Galpha-i3. Galpha-i3/FITC-GIV peptide fluorescence polarization, 90 min; active compounds read low; scaled: aluminum fluoride 0%, vehicle 100%. 210,000 tested, 0.42% active. P08753. percent of control (FP), % (test concentration not listed);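 active means replicate mean at 85% of control or lower, very high polarization wells dropped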;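 further: lower values mean more displacement of the GIV peptide from Galpha-i3; wells of about 15 µL received 100 nL stock; the first replicate is given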
Target sequence (P08753 whole entry, looked up): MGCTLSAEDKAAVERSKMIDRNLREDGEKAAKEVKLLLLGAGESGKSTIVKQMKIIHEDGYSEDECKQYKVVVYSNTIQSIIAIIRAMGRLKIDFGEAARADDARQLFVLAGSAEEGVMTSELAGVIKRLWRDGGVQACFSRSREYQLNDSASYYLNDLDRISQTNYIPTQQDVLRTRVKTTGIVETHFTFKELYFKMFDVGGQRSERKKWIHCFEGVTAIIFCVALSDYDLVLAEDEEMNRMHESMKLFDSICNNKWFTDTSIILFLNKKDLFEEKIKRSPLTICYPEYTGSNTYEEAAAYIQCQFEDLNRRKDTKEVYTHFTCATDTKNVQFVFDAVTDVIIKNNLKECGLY
HCMV UL50-53 inh = inhibitors of HCMV UL50-UL53 nuclear egress complex interaction; 190,000 tested, 0.15% active; inhibition, % (test concentration not listed); HTRF UL50-UL53 interaction, normalized percent inhibition; AID 1918969;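 active means both replicates at 50% or more, plus weaker picks with an unusually low signal ratio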;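 further: stock transfer was 100 nL into about 20 µL; 0% = negative control wells and 100% = wells with untagged competitor protein; inactives centre near -12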
Sa growth 42C second temp = further read-out of Sa growth 42C, marked with its call; relative growth, %; measured here: growth at 30 °C;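 optical density after 20 h as mean of two plates; 100% = untreated growth and lower means inhibition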
* hit, by the source's call; nt = no result given.

no. | SMILES | GIV-Gai inh | Sa growth 42C second temp
1 | CCC1CN(C(=O)N2CCC(C(=O)NCc3ccc(C)o3)CC2)c2cc(C)ccc2O1 (stereo unspecified) | 102 | 91
2 | CCN(Cc1ccncc1)C(=O)c1ccc(Cl)c(Cl)c1 | 101 | 106
3 | O=C1c2ccccc2OCC1c1ccccc1 (stereo unspecified) | 97 | 88
4 | Cc1cc(OCC(=O)O)no1 | nt | 86
5 | CN1C(=O)c2ccccc2N2C(=O)CCC12C(=O)OCN1C(=O)c2ccccc2C1=O (stereo unspecified) | nt | 95
6 | Cc1cccc(C)c1NC(=O)CSc1nc(-c2cccs2)cc(C(F)(F)F)n1 | 95 | 88
7 | O=C(CCS(=O)(=O)c1ccc(Br)cc1)Nc1ccc(F)cc1F | 99 | 84
8 | BrCc1ccc2c(c1)c(-c1ccccc1)nc1nnnn12 | 104 | nt

no. | Sa growth 42C | HCMV UL50-53 inh
1 | 124 | -1
2 | 119 | -33
3 | 90 | -16
4 | 72 | -28
5 | 77 | -51
6 | 86 | -30
7 | 104 | nt
8 | nt | -23

Following part
no. | SMILES | GIV-Gai inh | Sa growth 42C second temp
9 | CCOC(=O)c1sc(NC(=O)c2cc3n(n2)C(C(F)(F)F)CC(c2cccs2)N3)c(C(=O)OCC)c1C (stereo unspecified) | 88 | nt
10 | O=C(O)CCn1c(-c2ccc(F)cc2)n[nH]c1=S | nt | 95
11 | COCc1cc(=O)[nH]c(/N=C(\N)Nc2ccc(F)cc2)n1 | 105 | 90
12 | N#C/C(=C/c1cccs1)C(=O)O | 110 | 90
13 | COc1ccc(CNC(=O)c2ccc(N3CCCC3)c(NC(=O)NCc3ccc(F)cc3)c2)cc1 | 105 | 88
14 | CN(C)C(=O)COC(=O)c1cc2ccccc2oc1=O | nt | 92
15 | Cc1c(Cl)cccc1NC(=O)Nc1c[nH]c(=O)[nH]c1=O | 104 | 91
16 | CCOc1ccccc1NC(=O)N1CCc2c(sc(C)c2CC)C1c1ccccc1 (stereo unspecified) | 101 | 83

no. | Sa growth 42C | HCMV UL50-53 inh
9 | nt | -28
10 | 95 | -13
11 | 109 | 15
12 | 91 | -101
13 | 88 | nt
14 | 93 | -37
15 | 86 | nt
16 | 99 | nt

(list continues)
no. | SMILES | GIV-Gai inh | Sa growth 42C second temp
17 | COc1ccccc1-c1cc(C(F)(F)F)nc(NCc2ccco2)n1 | 97 | 84
18 | Cc1oc(C(C)(C)C)cc1C(=O)NCc1ccc(C(=O)O)o1 | nt | 84
19 | COC(=O)c1ccc(-c2csnn2)cc1 | 103 | 100
20 | CC(C(=O)NC1CC1)N1CCC(N2CCCCC2)CC1 (stereo unspecified) | 97 | 90
21 | COC(=O)c1ccccc1NC(=O)Cn1c(=O)cc(C)c2c(C)nn(-c3cccc(Cl)c3C)c21 | 100 | 92
22 | Cc1cc(C)c(C(=O)N2CCCC(C(=O)N3CCN(c4cccc(C)c4C)CC3)C2)[nH]1 (stereo unspecified) | 101 | nt
23 | CCC(C(=O)Nc1cc(F)ccc1F)n1nc(-c2ccccc2)c2c(c1=O)CCCC2 (stereo unspecified) | 107 | nt
24 | CCCCN(Cc1ccccc1)S(=O)(=O)c1ccc2c(c1)CC(C)N2C(=O)CC (stereo unspecified) | 107 | 105

no. | Sa growth 42C | HCMV UL50-53 inh
17 | 69 | nt
18 | 112 | -18
19 | 98 | -2
20 | 93 | 0
21 | 102 | nt
22 | nt | -26
23 | nt | -1
24 | 88 | -4

Additional compounds follow:
no. | SMILES | GIV-Gai inh | Sa growth 42C second temp
25 | O=C(Cc1ccc2c(c1)OCO2)N1CCC(n2nc(-c3ccccc3)oc2=O)CC1 | 129 | nt
26 | Cc1ccc(S(=O)(=O)c2nc(-c3cccs3)oc2SCc2ccc(F)cc2)cc1 | 101 | 87
27 | COC(=O)c1c(NC(=O)c2cc(=O)c3ccc(C)c(C)c3o2)sc2c1CCCC2 | 98 | 84
28 | CC(=O)NC(c1ccccc1)c1cccnc1 (stereo unspecified) | 102 | 92
29 | Cc1c(C(=O)NCc2ccc(F)cc2)sc2nc(-c3ccccc3)cn12 | 112 | 103
30 | CC(C)NC(=O)CCSc1nc(-c2ccco2)cc(C(F)(F)F)n1 | 106 | 85
31 | CCN(CC)c1ccc(C(=O)c2ccccc2C)cc1 | 102 | 79
32 | c1ccc(Nc2ccccn2)cc1 | nt | 83

no. | Sa growth 42C | HCMV UL50-53 inh
25 | nt | -13
26 | 93 | -6
27 | 111 | -31
28 | 97 | -18
29 | 96 | nt
30 | 93 | -38
31 | 90 | -2
32 | 97 | -12

Profiles as entered above. Values in the order: GIV-Gai inh, Sa growth 42C second temp, Sa growth 42C, HCMV UL50-53 inh
Cc1ccc(S(=O)(=O)c2nc(-c3cccs3)oc2SCc2ccc(F)cc2)cc1 across the screens: 101, 87, 93, -6
O=C(Cc1ccc2c(c1)OCO2)N1CCC(n2nc(-c3ccccc3)oc2=O)CC1 across the screens: 129, nt, nt, -13

Further records:
no. | SMILES | GIV-Gai inh | Sa growth 42C second temp
33 | CCCCn1c(=N)n(CCOc2ccccc2OC)c2ccccc21 | 104 | 84
34 | COc1cc(C2NC(=O)NC(C)=C2C(=O)OCC2CCCO2)cc(Br)c1O (stereo unspecified) | 104 | nt
35 | O=C(CN1C(=O)c2ccccc2C1=O)OCc1cc(=O)n2ccsc2n1 | 100 | 87
36 | Cc1nc2ncnn2c(C)c1CCC(=O)N(C)CCOc1ccc(Cl)cc1 | nt | 93
37 | CC(c1ccncc1)N(CCN(C)C)C(=S)Nc1cc(F)cc(F)c1 (stereo unspecified) | 103 | 86
38 | CCCC(=O)Nc1ccc(-c2ccc(S(=O)(=O)CC)nn2)cc1 | 106 | nt
39 | C=CCN(CC=C)Cc1c(O)ccc2oc(C)c(C(=O)Nc3ccccc3C)c12 | 97 | 86
40 | COc1ccc(-c2c(C)nn3c(N)c(-c4ccccc4)cnc23)cc1 | 104 | 90

no. | Sa growth 42C | HCMV UL50-53 inh
33 | 97 | -8
34 | nt | -8
35 | 107 | -72
36 | 85 | -14
37 | 109 | nt
38 | nt | -12
39 | 98 | -8
40 | 105 | nt

Ordered by heavy-atom count (smallest number first): some entries from above
no. | SMILES | GIV-Gai inh | Sa growth 42C second temp
38 | CCCC(=O)Nc1ccc(-c2ccc(S(=O)(=O)CC)nn2)cc1 | 106 | nt
33 | CCCCn1c(=N)n(CCOc2ccccc2OC)c2ccccc21 | 104 | 84
36 | Cc1nc2ncnn2c(C)c1CCC(=O)N(C)CCOc1ccc(Cl)cc1 | nt | 93
39 | C=CCN(CC=C)Cc1c(O)ccc2oc(C)c(C(=O)Nc3ccccc3C)c12 | 97 | 86

no. | Sa growth 42C | HCMV UL50-53 inh
38 | nt | -12
33 | 97 | -8
36 | 85 | -14
39 | 98 | -8

Next section:
no. | SMILES | GIV-Gai inh | Sa growth 42C second temp
41 | CCCCn1c(=O)c2sccc2n2c(CCC(=O)NC3CCCC3)nnc12 | 97 | nt
42 | Cc1sc(N)nc1-c1ccc(Cl)cc1 | 97 | nt
43 | Cc1ccc(CSc2nc3ccccc3n3c(C)nnc23)c(C)c1 | 107 | nt
44 | CCN(CC)S(=O)(=O)N1CCN(S(=O)(=O)N2CCOCC2)CC1 | 106 | 78
45 | COc1cc2c(cc1OC)CN(CN1C(=O)CC3(CCCC3)C1=O)CC2 | nt | 79
46 | Cn1cc(C(=O)N2CCCC2)c(=O)c2cc(S(=O)(=O)N3CCCC3)ccc21 | 105 | 89
47 | CSc1nnc(CNC(=O)NCc2ccccc2)n1C | 107 | 88
48 | CC(C)(C)c1cc(C(C)(C)C)c2oc(=O)c(-c3nc4ccccc4[nH]3)cc2c1 | 98 | 85

no. | Sa growth 42C | HCMV UL50-53 inh
41 | nt | -19
42 | nt | 1
43 | nt | -30
44 | 90 | 5
45 | 102 | -51
46 | 104 | nt
47 | 85 | -6
48 | 106 | nt

Sorted by value in Sa growth 42C second temp (highest first): 4 of the compounds above
no. | SMILES | GIV-Gai inh | Sa growth 42C second temp
47 | CSc1nnc(CNC(=O)NCc2ccccc2)n1C | 107 | 88
48 | CC(C)(C)c1cc(C(C)(C)C)c2oc(=O)c(-c3nc4ccccc4[nH]3)cc2c1 | 98 | 85
45 | COc1cc2c(cc1OC)CN(CN1C(=O)CC3(CCCC3)C1=O)CC2 | nt | 79
44 | CCN(CC)S(=O)(=O)N1CCN(S(=O)(=O)N2CCOCC2)CC1 | 106 | 78

New compounds follow.
no. | SMILES | GIV-Gai inh | Sa growth 42C second temp
49 | Cn1c(=O)c2c(ncn2CC(=O)N(CC(=O)NC2CCCCC2)Cc2ccccc2Cl)n(C)c1=O | 98 | 99
50 | Cc1cc2[nH]c(=O)c(=O)[nH]c2cc1S(=O)(=O)N1CCN(CCOc2ccc(Cl)cc2)CC1 | 105 | 110
51 | COC(=O)c1ccc2c(c1)NC(=O)CN2 | 168 | 75
52 | CCCCCc1nc2ccccc2c(=O)n1N | 92 | 90
53 | O=C(Cn1c(=O)c2ccccc2n(CC(=O)Nc2ccccc2F)c1=O)NCCc1ccccc1 | 99 | 96
54 | N#CC1=C(N)SC(N)=C(C#N)C12C(=O)N(CCc1ccccc1)c1ccccc12 | nt | -1
55 | C=CCNC(=S)Nc1cccc(-c2n[nH]c(=S)o2)c1 | 98 | nt
56 | CN(C(=O)c1nc(-c2ccc(Cl)cc2)n2c1CCCCC2)C1CCCCC1 | 102 | 88

no. | Sa growth 42C | HCMV UL50-53 inh
49 | 111 | -18
50 | 97 | 8
51 | 83 | -87
52 | 75 | 0
53 | 85 | -10
54 | 32 | -8
55 | nt | -8
56 | 101 | nt

Structures listed so far containing a tert-butyl group:
no. | SMILES | GIV-Gai inh | Sa growth 42C second temp
18 | Cc1oc(C(C)(C)C)cc1C(=O)NCc1ccc(C(=O)O)o1 | nt | 84
48 | CC(C)(C)c1cc(C(C)(C)C)c2oc(=O)c(-c3nc4ccccc4[nH]3)cc2c1 | 98 | 85

no. | Sa growth 42C | HCMV UL50-53 inh
18 | 112 | -18
48 | 106 | nt

Later entries
no. | SMILES | GIV-Gai inh | Sa growth 42C second temp
57 | NC(=O)NC(=O)C(Sc1ncccn1)c1ccccc1 (stereo unspecified) | nt | 93
58 | O=C(O)CCc1nc2ncccc2c(=O)n1Cc1ccc(F)cc1 | 101 | 95
59 | CC(C)c1cccc(C(C)C)c1NS(C)(=O)=O | 107 | 107
60 | CCOC(=O)c1sc2ncnc(Oc3ccccc3F)c2c1C | 97 | nt
61 | Cc1ccc(Cn2c(-c3ccccc3)nc3ccccc32)cc1 | 104 | 86
62 | O=C(NCCCN1CCCC1=O)c1cc(=O)c2ccccc2o1 | nt | 85
63 | Cn1c(=O)n(C)c2cc(Nc3cc(N4CCCC4)ncn3)ccc21 | 105 | 83
64 | CCCc1cc(=O)n2[nH]c(C(F)(F)F)c(-c3ccccc3)c2n1 | 97 | 48

no. | Sa growth 42C | HCMV UL50-53 inh
57 | 97 | -5
58 | 105 | nt
59 | 105 | -12
60 | nt | -19
61 | 101 | -1
62 | 112 | -68
63 | 95 | -4
64 | 83 | -4

Next section
no. | SMILES | GIV-Gai inh | Sa growth 42C second temp
65 | CCOC(=O)c1c[nH]c2onc(C)c2c1=O | 106 | 97
66 | C=CCn1c(SCC(=O)NC(C)C)nnc1-c1ccc2ncccc2c1 | 95 | 85
67 | O=C(Cn1c(=O)n(Cc2ccccc2)c(=O)c2ncccc21)N1CCC(Cc2ccccc2)CC1 | 104 | nt
68 | CCCN(CCC)C1Sc2ccc(C(=O)OC)cc2NC1=O (stereo unspecified) | 100 | 94
69 | COc1ccc(-c2c(C)oc3cc(O)cc(O)c3c2=O)cc1OC | 104 | 81
70 | COc1ccc(OCCSc2nc3ccccc3n2CCC(=O)O)cc1 | 93 | nt
71 | Cc1nn(Cc2noc(-c3ccccc3Br)n2)c(C)c1S(=O)(=O)N1CCCC1 | 102 | nt
72 | COc1ccc(Oc2c(C(F)(F)F)oc3c(CN4CCCC(C)C4)c(O)ccc3c2=O)cc1 (stereo unspecified) | 101 | 87

no. | Sa growth 42C | HCMV UL50-53 inh
65 | 109 | -2
66 | 95 | -18
67 | nt | -29
68 | 110 | -4
69 | 113 | -2
70 | nt | -8
71 | nt | -20
72 | 89 | -34

Next part.
no. | SMILES | GIV-Gai inh | Sa growth 42C second temp
73 | COc1cccc(CN2C(=O)CC(c3ccccc3)=Nc3ccccc32)c1 | 104 | nt
74 | O=C(c1ccccc1)n1nc(-c2ccco2)nc1NCc1ccccc1 | 98 | 79
75 | Cc1ccc(Nc2c(C(=O)N3CCOCC3)cnc3ccccc23)cc1 | 99 | nt
76 | CSc1nc2ccccc2n1CN1CCN(CC(=O)Nc2ccccc2Cl)CC1 | nt | 95
77 | CC1(C(=O)NC2CCCCC2)Cn2c(ccc2-c2ccccc2)C(=O)N1CCCN1CCOCC1 (stereo unspecified) | 102 | nt
78 | CCC(=O)N1CCc2cc(S(=O)(=O)Nc3ccc(CC)cc3)ccc21 | 97 | 85
79 | Cc1cc(NC(=O)COC(=O)/C=C/c2cccs2)no1 | nt | 95
80 | COc1ccc(CC(=O)NCC(c2cccs2)S(=O)(=O)c2ccc(C)cc2)cc1 (stereo unspecified) | 103 | 97

no. | Sa growth 42C | HCMV UL50-53 inh
73 | nt | -18
74 | 87 | -10
75 | nt | -8
76 | 90 | -25
77 | nt | -13
78 | 97 | nt
79 | 82 | -26
80 | 94 | nt

Compound activity: PubChem BioAssay, ICCB-Longwood Screening Facility, Harvard Medical School
